# TRPML1 blocker – human mucolipin-1 channel inhibition | 390,000 tested, 0.02% active | TRPML1-inducible cells, Ca2+ dye fluorescence, FDSS; active compounds read low; inhibition of EC80 agonist-evoked calcium signal | activity change, negative = inhibition, % (no concentration beside the values) | Q9GZU1; in the data active means activity change below about -50%; inconclusive means about -30% to -50%; inactive means above about -30%;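 also: stimulus is agonist 54-4 at its EC80 concentration; % is scaled to controls: 0 for no effect and ±100 for the full control effect; compound concentration not given in the record; the text of the record puts the active cut at -80%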
# Target sequence (Q9GZU1 whole entry, looked up): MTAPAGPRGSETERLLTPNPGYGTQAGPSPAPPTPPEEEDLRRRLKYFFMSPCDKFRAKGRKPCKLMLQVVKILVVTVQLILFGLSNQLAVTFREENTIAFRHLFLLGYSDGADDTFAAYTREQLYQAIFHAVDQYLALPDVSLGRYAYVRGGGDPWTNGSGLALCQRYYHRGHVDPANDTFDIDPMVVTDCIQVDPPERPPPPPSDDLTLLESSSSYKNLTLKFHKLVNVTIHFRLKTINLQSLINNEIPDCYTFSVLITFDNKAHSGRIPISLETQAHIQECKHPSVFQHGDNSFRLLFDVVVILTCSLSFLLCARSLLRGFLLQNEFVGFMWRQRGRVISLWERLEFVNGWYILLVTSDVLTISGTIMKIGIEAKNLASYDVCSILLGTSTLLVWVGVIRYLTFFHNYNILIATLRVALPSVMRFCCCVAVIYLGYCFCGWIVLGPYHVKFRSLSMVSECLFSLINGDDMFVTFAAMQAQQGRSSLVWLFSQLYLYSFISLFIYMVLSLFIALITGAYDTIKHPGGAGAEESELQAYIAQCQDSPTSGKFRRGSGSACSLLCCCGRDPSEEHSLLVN
#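 TRPML1-DL cells, Tet-induced overnight (~16 h, 37 °C) at 1,500 cells/well, were loaded with Ca8 no-wash dye plus quencher for 45-90 min at room temperature. Compounds were pinned during FDSS kinetic reading; agonist 54-4 at EC80 (4 uM final) then added.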
# TRPML1 ag – agonists of human TRPML1 channel. TRPML1-expressing cells, Ca2+ dye fluorescence, FDSS; host cell line not named in the record; reference of the full effect not given here. activation, % (no concentration beside the values). 410,000 tested, 0.12% active. AID 624414; in the data active = activation above about 50%; inconclusive = about 30% to 50%; inactive = below about 30%; also: 0% is about no effect; the text of the record puts the active cut at 80%
#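 Tet-induced TRPML1-DL cells, 1,500 per well, cultured overnight, were loaded with a no-wash Ca2+ dye for 45–90 min. Calcium fluorescence was recorded on the FDSS for 110 s after compound addition, before the EC80 agonist (4 uM 54-4) was added.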
# The depositor's hits bear a star. A portion of the library (hit frequency here may not be typical).
SMILES	TRPML1 blocker	TRPML1 ag
CC(=O)Nc1ccc(NC(=O)CCS(=O)(=O)c2ccc3c(c2)CC(=O)N3C)cc1	5.0	-0.2
O=C(Nc1ccc(F)cc1)Nc1ccc2snnc2c1	-5.5	2.6
CCOc1ccc(OCC)c(NC(=O)C(NS(=O)(=O)c2cccs2)c2ccccc2)c1 (stereo not given)	-0.7	0.5
CCN(C(=O)CSc1nc2ccccc2n1CC(=O)N(C)C1CCCCC1)c1ccccc1	-10.8	0.8
Fc1ccc(-c2csc(=Nc3cccc(C(F)(F)F)c3)n2Cc2ccc3c(c2)OCO3)cc1	17.4	-0.1
CCn1c(=O)cc(SCC(=O)NCCc2ccc(Cl)cc2)c2ccccc21	-2.2	0.5
CC1=C(C(=O)OC2CCCCCC2)C(c2ccccc2Cl)CC(=O)N1 (stereo not given)	-11.1	-0.3
COc1ccc(N2CCN(C(=O)C3CCN(S(=O)(=O)c4cnc[nH]4)CC3)CC2)cc1	-26.9	-0.1
O=S(=O)(c1ccccc1)n1nc(-c2ccco2)nc1NCc1ccccc1	8.8	1.7
Cn1c(=O)c(=O)n(C)c2cc(C(=O)NCc3ccccc3Cl)ccc21	23.9	0.6
CCC(=O)N1CCc2cc(Br)cc(S(=O)(=O)CCC(=O)NCCc3ccc(OC)c(OC)c3)c21	-25.9	-0.3
O=C(CSCc1ccccc1Cl)N1CCN(c2ccc(F)cc2)CC1	6.8	0.5
CCOc1ccccc1NC(=O)c1c(NCc2sccc2C)sc2c1CCCCC2	-18.8	0.3
Cc1cc(=O)n2c(C(=O)Nc3ccc(Br)cc3)c(C(=O)Nc3ccccc3)sc2n1	-6.4	0.4
O=C(CCSCc1ccccc1Cl)NCCc1ccccc1	12.1	2.1

# Among those listed so far, two contain an aryl methoxy group:
SMILES	TRPML1 blocker	TRPML1 ag
COc1ccc(N2CCN(C(=O)C3CCN(S(=O)(=O)c4cnc[nH]4)CC3)CC2)cc1	-26.9	-0.1
CCC(=O)N1CCc2cc(Br)cc(S(=O)(=O)CCC(=O)NCCc3ccc(OC)c(OC)c3)c21	-25.9	-0.3

# Further entries follow.
SMILES	TRPML1 blocker	TRPML1 ag
O=C(NCc1ccccn1)c1nn(-c2ccccc2Cl)nc1CO	15.5	1.5
Cc1ccc(N2CCN(C(=O)CCS(=O)(=O)c3cc4c(cc3Cl)NC(=O)CO4)CC2)c(C)c1	-6.0	4.9
Cc1ccc(OCC(=O)Nc2ccc(-c3nc4ccccc4o3)cc2)c(C)c1	8.5	1.6
O=S(=O)(c1ccccc1)N1CCN(c2nc(-c3ccc(F)cc3)nc3cc(Cl)ccc23)CC1	-3.8	0.4
O=c1c(NCc2cccs2)nccn1-c1ccc(F)cc1	15.5	-0.9
CC(C)c1ccc(Nc2c(-c3ccco3)nc3ccccn23)cc1	-12.0	1.5
COc1ccc(-c2cc(C(=O)Nc3ccn(Cc4ccc(C)cc4)n3)no2)cc1OC	-5.1	-0.9
Cc1nc2nc[nH]n2c(=O)c1NS(=O)(=O)c1ccc(Br)cc1	33.0	0.8
Cc1ccc(CSc2nc3cccnc3n2Cc2ccc(C(=O)NC3CC3)cc2)cc1	-14.2	0.7
Cc1nn(-c2ccccc2)c(OC(=O)C(C)C)c1Sc1ccccc1	11.1	-0.5
O=C1N(Cc2cccc(C(F)(F)F)c2)c2ccccc2S(=O)(=O)N1c1cccc(Cl)c1	-1.4	-0.4
CCOC(=O)c1c(S(=O)(=O)N2CCCC(C(=O)Nc3cccc(CC)c3)C2)c(C)n(CC)c1C (stereo not given)	-22.3	1.9
CC(CNC(=O)c1ccc2nc(Cc3ccccc3)oc2c1)c1ccccc1 (stereo not given)	54.2	7.5
Cc1ccc2onc(CC(=O)N3CCN(c4ccc(Cl)cc4)CC3)c2c1	-17.8	0.3
CCOC(=O)c1c(S(=O)(=O)N2CCC(C(=O)Nc3cccc(C)n3)CC2)c(C)n(C)c1C	-8.2	-1.1
Cc1ccc(NC(=O)CN2C(=O)c3cccnc3Oc3ccc(Cl)cc32)cc1	25.5	4.1
COc1cc(-c2nc(Cn3nnc(C(=O)Nc4cccc(Cl)c4)c3C)c(C)o2)cc(OC)c1OC	-12.5	-0.3
Cc1cccc(C)c1NC(=O)CSc1nc(-c2ccccc2)nc2c1Cc1c(CO)cnc(C)c1O2	6.2	-0.6
Cn1c(=O)c2c(c3ccccc31)OC(=O)CC2c1cccc(F)c1 (stereo not given)	8.0	0.7
COc1ccccc1CNC(=O)CCC1N=C2c3ccccc3N=C(SCc3ccccc3Cl)N2C1=O (stereo not given)	12.4	1.3
CCc1ccc(NC(=O)CC2C(=O)N(c3ccc(OC)cc3)C(=O)N2Cc2cccs2)cc1 (stereo not given)	-4.2	0.7
Cc1nc2ccn(Cc3ccco3)c(=O)c2cc1C(=O)Nc1ccc(F)cc1	-4.9	0.4
COc1cccc(CNC(=O)C(C)n2ncn3cccc3c2=O)c1OC (stereo not given)	-4.2	-0.2
Cc1ccc(C(C)C)c(OCC(=O)Nc2cccc(-c3nc4ncccc4o3)c2)c1	-2.1	-0.6
Cn1c(=O)c(=O)n(C)c2cc(N3CCCC3)c(NC(=O)c3ccccc3F)cc21	28.2	0.2
C=C(C)Cn1c(=O)c2c(nc3n2CCN3c2cc(C)cc(C)c2)n(C)c1=O	13.4	-1.0
O=C(Nc1nnc(N2CCCC2)s1)Nc1cc(F)ccc1F	2.4	-0.6
CCCN1Cc2cccc(C(=O)Nc3ccccc3F)c2C1=O	43.9	4.4
CCn1cc(C(=O)N(C)Cc2ccccc2)c(=O)c2cc(S(=O)(=O)N3CCCCCC3)ccc21	-9.9	-0.6
Cc1cccn2c(=O)cc(CSc3nnc(NC(=O)c4ccc(F)cc4)s3)nc12	30.8	1.4
COc1ccc(NC(=O)c2sc3nc4c(cc3c2N)CN(Cc2ccccc2)CC4)cc1	4.3	2.2
COc1cc(OC)c(NC(=O)Cc2ccc(-n3c(C)nc4cccnc43)cc2)cc1Cl	14.7	2.5
COc1ccc(C2C=C(c3ccc(Cl)cc3)Nc3nc(NC(=O)CCC(=O)O)nn32)cc1 (stereo not given)	8.0	0.8
CC1=Nc2cc(C(=O)NCCc3ccc(Cl)cc3)ccc2Sc2c(C)ccc(C)c21	-4.3	3.6
CC(C)OCCCNC(=O)CSc1c2c(nc3ccc(Cl)cc13)CCCC2	8.8	0.3
COc1ccc(NC(=O)C2CCCN(C(=O)c3cnn(-c4ccc(F)cc4)c3-n3cccc3)C2)cc1 (stereo not given)	-2.8	1.2
CCSC1=NC2(CCN(C(=O)NC3CCCCC3)CC2)N=C1c1ccc(Cl)cc1	-2.5	1.5
CC(=O)c1cccc(NC(=O)c2nc(-c3ccccc3)n(-c3cccc(Cl)c3)n2)c1	14.3	-0.3
COc1ccc(OC)c(S(=O)(=O)N2CCC(n3c(C)nc4cccnc43)CC2)c1	4.7	-0.4
O=C(NCc1cccs1)c1ccc2c(c1)N(Cc1cccc(F)c1)C(=O)c1ccccc1S2	18.5	2.5
Cc1ccc(Cl)cc1Nc1nn2c(=O)c3ccc(C(=O)N4CCCC(C)C4)cc3nc2s1 (stereo not given)	20.8	0.7
CSc1ncc(C(=O)NCc2ccc(F)cc2)c(-c2ccccc2)n1	0.3	2.1
CC(=O)N1CCN(/[N+]([O-])=N/Oc2ccc([N+](=O)[O-])cc2[N+](=O)[O-])CC1	28.1	1.5
N#C/C(=C/c1ccc(O)cc1)c1nc(-c2ccc(-c3ccccc3)cc2)cs1	14.4	0.8
Cc1ccc(C)c(N2CCN(c3nc4ccccc4n4c(C)nnc34)CC2)c1	9.9	-0.2

# Sorted by the number under TRPML1 blocker (highest first): three from the list above
Molecule,TRPML1 blocker
O=C(NCc1cccs1)c1ccc2c(c1)N(Cc1cccc(F)c1)C(=O)c1ccccc1S2,18.5
CC(C)OCCCNC(=O)CSc1c2c(nc3ccc(Cl)cc13)CCCC2,8.8
COc1ccc(NC(=O)C2CCCN(C(=O)c3cnn(-c4ccc(F)cc4)c3-n3cccc3)C2)cc1 (stereo not given),-2.8

# The list continues:
SMILES	TRPML1 blocker	TRPML1 ag
C#CCOc1ccc(C(=O)N(C)c2ccccc2I)cc1	-7.3	1.3
COc1ccc(CC(=O)N2CC(=O)Nc3ccc(F)cc3C2c2ccccc2)cc1 (stereo not given)	-15.8	-0.8
CCN(CC)C(=O)CN1C(=O)COc2ccc(S(=O)(=O)N3CCOCC3)cc21	-16.5	0.4
CC(C)(C)OC(=O)N1CCC(c2nnc(SCc3ccccc3F)o2)CC1	4.1	1.3
Cn1c(=O)n(C)c2cc(N3CCCCC3)c(NC(=O)c3ccc(Cl)cc3)cc21	-2.6	-0.1
CCCNC(=O)c1cc2nc(-c3ccc(Br)cc3)cc(C(F)(F)F)n2n1	-6.5	2.9
CCCCNC(=O)CC1Nc2cc(C)c(C)cc2NC1=O (stereo not given)	-5.0	-0.4
O=C(Nc1ccc(F)cc1)C1CCN(c2nc3ccccc3n3cccc23)CC1	-4.6	4.1
CCOc1ccc(-c2cn3nc(CC(C)C)sc3n2)cc1	3.5	-0.3
Cc1ccccc1CN1C(=O)c2ccccc2Sc2ccc(C(=O)N3CCOCC3)cc21	-21.1	0.2
CCCCNc1nc2c(c(=O)n(C)c(=O)n2C)n1CC(O)COc1ccccc1C (stereo not given)	5.8	-0.1
COc1ccccc1Cn1c(CNS(=O)(=O)c2ccc(CC(C)C)cc2)nc2cccnc21	-17.7	-0.2
COc1cc(OC)c(NC(=O)C2CCN(S(=O)(=O)c3c(C)noc3/C=C/c3c(C)cc(C)cc3C)CC2)cc1Cl	0.8	-0.9
Cc1c(NC(=O)Nc2ccc(Cl)c(Cl)c2)sc2nc3n(c(=O)c12)CCC(C)CC3 (stereo not given)	-7.9	-0.9
Cc1ccc(-n2c(SCc3nc(-c4ccccc4C)no3)nnc2-c2ccncc2)cc1C	23.9	2.1
COc1ccccc1N1CCN(c2ncnc3c2c(-c2ccccc2)cn3-c2cccc(Cl)c2)CC1	14.3	19.7
Cc1ccc(-c2cnc(C3CC3)o2)cc1S(=O)(=O)Nc1cccc(C#N)c1	-15.7	3.0
CC(C)Nc1ccc(-c2nc(-c3ccco3)no2)cc1[N+](=O)[O-]	-6.9	-0.3
CCOc1ccc(NC(=O)CC2C(=O)N(c3ccccc3)C(=O)N2C2CCCC2)cc1 (stereo not given)	-8.6	0.6
Cc1ccccc1C(=O)Nc1sc2c(c1C(=O)NCc1ccco1)CCC(C(C)(C)C)C2 (stereo not given)	-0.3	0.1
Fc1ccc(-c2noc3ncnc(NCc4cccc(Cl)c4)c23)cc1	61.1	3.2
CCOc1ccccc1NC(=O)c1c(NCc2cccs2)sc2c1CCC(C)C2 (stereo not given)	-1.6	-1.1
Cc1cccc(NC(=O)CN2C(=O)CSc3ccc(S(=O)(=O)N4CCCC4)cc32)c1C	-24.7	1.0
COc1ccc(Nc2ncnc3scc(-c4ccc(F)cc4)c23)cc1	60.2	0.0
Cc1ccn2c(=O)c(NC(=O)c3cccc([N+](=O)[O-])c3C)c(C)nc2c1	-6.6	-0.5
O=C(Nc1ccc(Cl)cc1)N1CCC(CN2CCCCCC2)CC1	6.8	0.0
O=C(NCCc1csc(-c2cccc(F)c2)n1)C(=O)Nc1cc(F)ccc1F	34.4	0.3
COc1ccccc1NC(=O)Cn1c(=O)n(-c2ccc(C)cc2)c(=O)c2c1cnn2C	0.0	0.2
O=C(O)Cc1sc(Nc2ccc(C(=O)O)cc2)nc1-c1ccccc1	23.1	-0.5
COc1ccc(CCNC(=O)CCc2cn(Cc3ccc(C)cc3)c3ccccc23)c(OC)c1OC	28.0	1.1
Cc1cccc(C(=O)n2nc(-c3cccnc3)nc2NCc2ccc(F)cc2)c1	20.9	-0.1
CCc1ccc(C2CC(=O)Oc3c2c(=O)n(C)c2ccccc32)cc1 (stereo not given)	9.9	0.7
O=C(Nc1ccc2oc(-c3ccc4ccccc4c3)nc2c1)c1ccc(Cl)c(Cl)c1	12.8	0.1
CCOC(=O)C1CCCN(C(=O)c2ccc(-n3ccc4ccccc43)s2)C1 (stereo not given)	4.7	0.0
COc1cccc(C(=O)c2cn(CC(=O)Nc3cc(Cl)c(OC)cc3OC)c3nc(C)ccc3c2=O)c1	-12.8	3.7
CCN(CC)CCCNC(=O)Cn1ncc2c3ccccc3n(Cc3ccccc3)c2c1=O	20.2	4.8
CCc1c(C)nc(SCc2nc(-c3ccccc3)no2)[nH]c1=O	9.0	-0.3
Cc1cc(C)c(NC(=O)CSc2nc(C)cc(C)c2C#N)c(C)c1	0.4	3.2
Cc1ccccc1Cn1c(COc2ccc(Cl)cc2)nc2ccccc21	30.5	2.0
O=C(Nc1ccc2nc(SCC(=O)N3CCCC3)sc2c1)c1cccc(Br)c1	-29.0	1.9
COc1cc(OC)cc(-c2nnc(SCC(=O)N3CCC(C)CC3)o2)c1	-26.4	0.0
Cc1ccc2oc(C(=O)N(Cc3cccc(F)c3)C3CCS(=O)(=O)C3)c(C)c2c1 (stereo not given)	3.9	-0.4

# Assay outcomes deposited in PubChem BioAssay by National Center for Advancing Translational Sciences (NCATS).
